Screens (PubChem)
B2AR ag: human beta-2 adrenergic receptor agonism by FAP | P07550 | Am2.2-beta2AR cells, FAP receptor internalization, flow cytometry; reference of the scale not given here | response, % (test concentration not listed) | hit rate 0.43% among 340,000 | AID 504454;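 active = response above a set limit, near 3 SD of response in nonfluorescent compounds, cut at about 42% in these data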;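 also: stock transfer was 100 nL into about 11 µL; a reference agonist was the positive control; negative values mostly stem from fluorescent compounds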
LANA-H2A inh: blocks KSHV LANA binding to histone H2A/H2B | Q9QR71 | cell-free LANA-H2A/H2B peptide, fluorescence polarization | inhibition, % (concentration not given with the values) | hit rate 0.6% among 320,000; in the data active = inhibition mostly above about 10%, no sharp cut-off; inactive = mostly below about 6.7%;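 also: stock transfer was 7.5 nL into about 10 µL; 0% = median of vehicle wells and 100% = median of positive control wells; one replicate is shown; the record names a cut of 25% in any replicate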
Target sequence (Q9QR71 whole entry, looked up): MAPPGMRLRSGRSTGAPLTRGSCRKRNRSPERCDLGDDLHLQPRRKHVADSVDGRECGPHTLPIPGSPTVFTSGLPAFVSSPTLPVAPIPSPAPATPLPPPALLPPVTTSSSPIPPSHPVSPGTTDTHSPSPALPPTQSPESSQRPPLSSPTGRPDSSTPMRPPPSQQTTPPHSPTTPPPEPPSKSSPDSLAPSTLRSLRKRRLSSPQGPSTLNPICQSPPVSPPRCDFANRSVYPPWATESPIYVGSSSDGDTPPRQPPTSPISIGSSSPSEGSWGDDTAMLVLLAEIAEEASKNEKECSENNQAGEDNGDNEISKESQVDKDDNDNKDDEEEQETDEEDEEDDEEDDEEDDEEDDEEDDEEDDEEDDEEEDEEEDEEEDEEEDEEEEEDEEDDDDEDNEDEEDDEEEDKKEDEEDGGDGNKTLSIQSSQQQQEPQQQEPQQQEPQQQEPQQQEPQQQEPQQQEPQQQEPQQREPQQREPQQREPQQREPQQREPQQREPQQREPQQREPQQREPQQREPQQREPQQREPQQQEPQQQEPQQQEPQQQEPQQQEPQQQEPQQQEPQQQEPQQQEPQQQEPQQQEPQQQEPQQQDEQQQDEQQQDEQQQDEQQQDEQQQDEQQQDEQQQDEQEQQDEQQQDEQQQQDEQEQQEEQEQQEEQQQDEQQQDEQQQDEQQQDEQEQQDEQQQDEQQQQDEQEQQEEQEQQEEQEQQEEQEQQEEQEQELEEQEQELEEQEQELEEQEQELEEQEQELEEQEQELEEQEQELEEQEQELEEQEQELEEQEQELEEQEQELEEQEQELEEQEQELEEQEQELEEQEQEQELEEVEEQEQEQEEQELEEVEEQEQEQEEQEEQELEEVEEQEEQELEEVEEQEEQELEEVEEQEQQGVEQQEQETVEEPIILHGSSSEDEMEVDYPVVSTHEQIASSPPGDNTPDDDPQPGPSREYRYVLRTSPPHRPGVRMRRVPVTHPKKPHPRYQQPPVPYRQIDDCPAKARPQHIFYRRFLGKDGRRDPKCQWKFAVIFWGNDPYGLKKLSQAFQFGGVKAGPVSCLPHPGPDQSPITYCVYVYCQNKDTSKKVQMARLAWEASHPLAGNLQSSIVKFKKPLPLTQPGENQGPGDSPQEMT
ALR H2O2 inh: inhibitors of human sulfhydryl oxidase ALR. inhibition, % (no concentration beside the values). P55789. hit rate 3.8% among 290,000. purified ALR, DTT oxidation, H2O2 HRP-luminol luminescence. AID 485317;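 active = mean and each replicate at 75% or more; inconclusive = only one of the two met; inactive = neither met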;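 also: stock transfer was 7.5 nL into about 7.5 µL; 0% = neutral wells and 100% = wells with inactivated enzyme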
Calb FLC: C. albicans growth modulation with fluconazole; C. albicans CaCi-2 (fluconazole-resistant clinical isolate) + fluconazole, Alamar Blue growth, 48 h; growth inhibition, % (concentration not given with the values); hit rate 0.57% among 300,000;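 active = most replicates above 75%; inconclusive = exactly half above 75%; inactive = most below 75%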;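 also: all wells also contain fluconazole at 8 µg/ml as a sub-toxic cotreatment; 0% = median of DMSO wells and 100% = median of geldanamycin control wells; wells of about 8 µL received 7.5 nL stock; the first replicate is given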
Beta apoptosis: blocks beta cell apoptosis; INS-1E cytokine-induced death, ATP luminescence, 48 h; percent of positive-control rescue, neutral wells zero; protection from apoptosis, % (no concentration beside the values); hit rate 0.8% among 300,000;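 active = all replicates at 75% or more, or half of them and the mean; inconclusive = half reach 75% but not the mean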;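 also: 0% = cytokine-treated negative control wells and 100% = positive control rescue; higher means more ATP so stronger rescue from cytokine killing; wells of about 40 µL received 100 nL stock; the first replicate is given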
rRNA inh HTS: inhibits bacterial ribosomal RNA function over humanized ribosomes | E. coli WT GFP vs humanized-ribosome RFP mutants, fluorescence, 24 h; hits give low values; DMSO median 0, no signal -100 | GFP signal change (wild-type ribosome), % (concentration not given with the values) | hit rate 1.6% among 350,000 | AID 720706;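 active = significant combined selectivity score with lowered wild-type GFP, culture density cut under 30%, mutant RFP and density less affected; inactive = any of these conditions unmet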; also: one replicate is shown; some compounds called inactive have numbers as strong as hits
Bfl-1 A1 inh: inhibitors of the anti-apoptotic protein A1, read as caspase activation | hit rate 0.066% among 330,000 | caspase activation, % (no concentration beside the values) | MEF A1-2A-BIM cells, Caspase-Glo 3/7 luminescence, 3 h; percent of clofoctol response, vehicle zero;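 active = over half of replicate activation scores above 10%, or exactly half above 10 with the replicate mean above 10; inconclusive = replicate mean below 10 yet half the replicates above 10; inactive = over half of replicates below 10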;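 also: wells of about 30 µL received 50 nL stock; many hits fall short of the cut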
T cruzi inh: T. cruzi replication inhibition. T. cruzi beta-gal in NIH3T3, luminescence, 90 h. inhibition, % (concentration not given with the values). hit rate 1.4% among 300,000. AID 1885;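 active = mean inhibition across valid replicates above about 55%, limit read from the data; inconclusive = mean below that limit but half or more replicates reach it; inactive = mean below it, under half of replicates reach it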;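 also: signal also drops with host cell toxicity which is not excluded here; 0% = plate median of DMSO wells and 100% = zero luminescence signal; higher percent means less beta-gal luminescence so fewer parasites; stock transfer was 50 nL into about 50 µL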
rRNA inh HTS OD600: also measured in rRNA inh HTS; calls as there; OD600 change, %; measured here: OD600 growth;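 optical density of the mix in the first replicate; 0 = DMSO median and -100 = no signal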
rRNA inh HTS RFP: recorded beside rRNA inh HTS, whose call it bears; RFP signal change, %; measured here: RFP humanized mutant strains;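 first replicate; 0 = DMSO median and -100 = no signal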
* hit, by the source's call; u = inconclusive; x = not tested or not shown.

SMILES	B2AR ag	LANA-H2A inh	ALR H2O2 inh	Calb FLC	Beta apoptosis	rRNA inh HTS	rRNA inh HTS OD600	rRNA inh HTS RFP	Bfl-1 A1 inh	T cruzi inh
CCN(Cc1ccccc1)S(=O)(=O)c1ccc(C(=O)N(CCCN(C)C)c2nc3cc4c(cc3s2)OCO4)cc1	21.2	-2.3	-10.5	-0.7	-4.6	-52.6	-80.1	-17.3	0.2	37.2
CC1CCC(N2CCN(S(C)(=O)=O)CC2)CC1 (centres undefined)	1.5	0.9	7.0	-8.0	-7.7	2.6	7.5	-3.4	0.1	-9.3
COc1ccc(-c2nnn(CCc3nn[nH]n3)n2)cc1	-4.5	-3.2	-2.5	-6.1	-2.3	x	x	x	-0.1	-11.0
CCOC(=O)c1ccccc1NC(=O)c1cc2ccccc2o1	12.9	-1.7	-1.9	-1.4	-7.3	2.2	7.9	4.1	-1.5	1.8
COc1ccccc1NC(=O)CC1C(=O)Nc2c1c(=O)n(C)c(=O)n2C (centres undefined)	-6.0	-3.0	3.6	-2.4	-3.1	x	x	x	0.3	-5.7
COc1ccc(CCNC(=O)c2ccc(CS(=O)(=O)c3ccc(Br)cc3)o2)cc1OC	8.1	0.0	-46.3	-5.4	13.2	-26.8	-22.0	-4.4	0.1	0.6
Cc1ccc(C2(C)NC(=O)N(CC(=O)c3ccc(Cl)s3)C2=O)cc1 (centres undefined)	-4.7	-6.2	-16.3	13.1	-4.7	x	x	x	-1.0	-6.4
CCOc1ccc(S(=O)(=O)NCCC(=O)N2CCN(Cc3ccccc3)CC2)cc1	-2.6	6.0	2.8	6.0	3.5	4.4	-0.8	-0.1	2.8	-11.0
CCCCOC(=O)CCc1c(C)n[nH]c1C	-2.6	1.4	3.1	-4.9	x	14.4	-1.3	2.2	u	-15.3
COc1ccc2c(c1)CCc1c(C(=O)N(C)c3ccccc3)noc1-2	-1.8	-0.5	-7.7	21.1	2.2	-42.9*	-23.2*	-5.2*	-0.7	1.9
Cc1oc2ccc(OC(C(=O)O)c3ccccc3)cc2c1C(=O)O (centres undefined)	-3.6	-0.7	-2.6	2.2	-10.8	18.6	15.5	1.0	-0.4	-8.3
Cc1ccc(NC2=CC(=O)CCC2)cc1C	-0.1	4.2	4.1	-0.2	5.2	x	x	x	0.8	-2.2

Entries of single compounds, quoted from the list:
Cc1ccc(C2(C)NC(=O)N(CC(=O)c3ccc(Cl)s3)C2=O)cc1 (centres undefined) across the screens: B2AR ag: -4.7; LANA-H2A inh: -6.2; ALR H2O2 inh: -16.3; Calb FLC: 13.1; Beta apoptosis: -4.7; rRNA inh HTS: x; rRNA inh HTS OD600: x; rRNA inh HTS RFP: x; Bfl-1 A1 inh: -1.0; T cruzi inh: -6.4
Cc1ccc(NC2=CC(=O)CCC2)cc1C across the screens: B2AR ag: -0.1; LANA-H2A inh: 4.2; ALR H2O2 inh: 4.1; Calb FLC: -0.2; Beta apoptosis: 5.2; rRNA inh HTS: x; rRNA inh HTS OD600: x; rRNA inh HTS RFP: x; Bfl-1 A1 inh: 0.8; T cruzi inh: -2.2

Sorted by the number under ALR H2O2 inh (rising): 5 of the compounds above
| molecule | ALR H2O2 inh |
| --- | --- |
| COc1ccc(CCNC(=O)c2ccc(CS(=O)(=O)c3ccc(Br)cc3)o2)cc1OC | -46.3 |
| Cc1ccc(C2(C)NC(=O)N(CC(=O)c3ccc(Cl)s3)C2=O)cc1 (centres undefined) | -16.3 |
| CCN(Cc1ccccc1)S(=O)(=O)c1ccc(C(=O)N(CCCN(C)C)c2nc3cc4c(cc3s2)OCO4)cc1 | -10.5 |
| Cc1oc2ccc(OC(C(=O)O)c3ccccc3)cc2c1C(=O)O (centres undefined) | -2.6 |
| CCOc1ccc(S(=O)(=O)NCCC(=O)N2CCN(Cc3ccccc3)CC2)cc1 | 2.8 |

More structures follow.
SMILES	B2AR ag	LANA-H2A inh	ALR H2O2 inh	Calb FLC	Beta apoptosis	rRNA inh HTS	rRNA inh HTS OD600	rRNA inh HTS RFP	Bfl-1 A1 inh	T cruzi inh
Cc1nnc(C)n1/N=C/c1ccc(C(C)C)cc1	-4.4	-2.1	-2.4	14.8	1.4	-0.7	0.7	-7.2	-0.3	-9.1
N#CC1CCN(C(=O)c2ccc3c(Cl)c4c(nc3c2)CCCC4)CC1	-11.1	5.4	58.3	4.9	1.8	-10.7	-3.8	-0.2	-0.8	2.9
Cc1noc(NS(=O)(=O)c2ccc(N/C=C/C(=O)c3ccc(F)cc3)cc2)c1C	-0.9	-6.0	7.6	11.0	1.1	-15.1	-15.8	-3.7	-1.1	-4.9
COc1ccc(-c2nc(C#N)c(N3CCCCCC3)o2)cc1OC	-5.5	-0.8	-2.2	13.0	15.5	-22.9*	-14.9*	3.0*	-0.3	28.9
O=C(/C=C/c1cccc([N+](=O)[O-])c1)OCC(=O)N1CCOCC1	1.0	0.6	-1.1	x	-0.5	2.3	7.5	0.9	1.1	x
Cc1cccc(N2CCN(C(=O)CCc3nc4ccccc4c(=O)[nH]3)CC2)c1C	-6.7	-0.2	4.3	x	-3.9	7.4	7.8	5.5	0.1	x
Cc1ccc(NC(=O)CS(=O)CC(=O)N(c2ccccc2)C(C)C(=O)NC2CCCC2)cc1 (centres undefined)	3.7	1.3	-4.9	18.1	-3.2	-3.9	-1.3	-1.0	0.5	9.9
Cc1cc(C)c(OCC(=O)OCC(=O)NCc2cccs2)c(C)c1	6.9	0.9	0.9	1.5	2.2	-0.6	-0.9	-1.2	-0.7	-5.7
O=C(NCc1ccccc1)c1noc2c1CCCCC2	-9.0	2.4	-7.4	-7.3	-0.9	x	x	x	-0.1	-8.4
O=C(COc1ccc(OCc2ccccc2)cc1)NC1CCOC1=O (centres undefined)	-6.6	-12.5	-4.5	-9.8	-11.7	x	x	x	-0.3	-7.2
COc1ccc(C2N3CC4(C)CN2CC(C)(C3)C4O)cc1 (centres undefined)	-2.3	2.8	9.8	-0.5	-0.8	4.9	12.9	-2.7	0.6	-0.5
CC(C)(C)c1ccc(Cn2c(=N)n(CC(O)c3ccco3)c3ccccc32)cc1 (centres undefined)	9.8	18.0*	x	20.4	38.3	x	x	x	-2.2	60.0*
Cc1c(C(=O)NCCN2CCOCC2)sc2nc(-c3ccc(F)cc3)cn12	-10.1	0.1	-10.4	5.5	3.3	-16.9*	-2.5*	3.3*	0.7	-6.1
COc1ccc(C2C=C(c3ccc(Cl)cc3)Nc3nc(NC(C)=O)nn32)cc1 (centres undefined)	x	2.2	53.5	x	3.8	x	x	x	-0.3	x
O=C(O)c1ccc(N2C(=O)/C(=C\c3ccccc3)N=C2c2ccccc2)cc1	-5.0	4.1	0.4	-4.8	-8.6	6.3	-2.2	-4.1	-0.3	6.6
CC1CN(c2nc(-c3ccc(Br)cc3)nnc2-c2ccccc2)CC(C)N1 (centres undefined)	-2.1	-3.8	97.0*	1.0	9.4	x	x	x	0.1	45.5
CC(OC(=O)c1ccc2ccccc2c1)C(=O)N(C)Cc1ccccc1 (centres undefined)	3.5	0.3	-1.0	x	-9.7	-22.9	-54.0	-5.4	0.3	x
NNC(=O)c1cncc(Br)c1	4.5	-7.1	x	7.3	-1.4	14.9	11.9	0.3	0.5	-7.6
O=S(=O)(c1ccc(Cl)c(NC(=S)N/N=C/c2c(F)cccc2F)c1)N1CCOCC1	9.3	-1.3	-2.0	-13.6	-5.2	0.1	-11.4	-1.1	-0.2	25.9
COCCCN1CC23C=CC(O2)C(C(=O)O)C3C1=O (centres undefined)	6.0	-8.0	-15.5	4.4	-3.5	11.1	17.4	-2.5	1.0	-17.9
CCCn1cnc2c(cnn2-c2ccc(F)cc2)c1=O	2.0	3.9	-10.4	3.9	2.9	x	x	x	0.3	-14.0
Cc1cc(OCC(=O)NCc2ccncc2)ccc1Cl	3.8	-1.2	-3.5	13.3	0.8	-4.7	7.0	-3.3	0.4	-3.1
CCOc1ccccc1C(=O)N(C)CC(=O)Nc1ccc(OC)cc1	-0.2	-0.1	1.1	-3.2	-3.0	10.1	6.7	1.0	-0.4	-16.4
COc1ccc(S(=O)(=O)Cc2ccc(C(=O)NC3CCCCC3)o2)cc1	-5.9	5.5	-14.3	4.7	-1.0	1.4	-1.4	-1.1	1.0	15.2

Some of the entries above, reformatted:
| Molecule | B2AR ag | LANA-H2A inh | ALR H2O2 inh | Calb FLC | Beta apoptosis | rRNA inh HTS | rRNA inh HTS OD600 | rRNA inh HTS RFP | Bfl-1 A1 inh | T cruzi inh |
| --- | --- | --- | --- | --- | --- | --- | --- | --- | --- | --- |
| COc1ccc(C2C=C(c3ccc(Cl)cc3)Nc3nc(NC(C)=O)nn32)cc1 (centres undefined) | x | 2.2 | 53.5 | x | 3.8 | x | x | x | -0.3 | x |
| O=C(O)c1ccc(N2C(=O)/C(=C\c3ccccc3)N=C2c2ccccc2)cc1 | -5.0 | 4.1 | 0.4 | -4.8 | -8.6 | 6.3 | -2.2 | -4.1 | -0.3 | 6.6 |

(listing goes on)
SMILES	B2AR ag	LANA-H2A inh	ALR H2O2 inh	Calb FLC	Beta apoptosis	rRNA inh HTS	rRNA inh HTS OD600	rRNA inh HTS RFP	Bfl-1 A1 inh	T cruzi inh
CC(=O)OC1C2CCC1C([N+]1(C)CCCCC1)CC2 (centres undefined)	0.4	-0.1	-1.4	-12.8	0.9	25.1	17.7	1.0	1.8	-3.8
Cc1ccccc1C(=O)Nc1ccc(O)c2c(=O)cc(-c3ccccc3Cl)oc12	-2.6	-5.6	x	-9.8	1.3	4.5	-0.3	-9.0	-0.4	-1.9
CN(C)c1ccc(/C=N\NC(=S)SCN2C(=O)C3CCC(C)(C2=O)C3(C)C)cc1 (centres undefined)	5.0	2.2	1.6	x	3.0	x	x	x	-1.0	x
Cc1nc2nc[nH]n2c(=O)c1NS(C)(=O)=O	8.1	2.6	13.2	2.3	2.9	x	x	x	-0.3	-3.4
COCCNC(=O)C1CCC(CNS(=O)(=O)c2c(C)cc(C)cc2C)CC1 (centres undefined)	8.0	-5.8	0.3	-8.2	-10.8	2.3	-2.8	-1.9	-0.2	-0.9
Cc1cccc(C(=O)N2N=C(c3ccc(NS(C)(=O)=O)cc3)CC2c2cccs2)c1 (centres undefined)	6.8	1.4	-20.4	20.6	5.4	-12.9	-28.6	8.8	-0.2	-7.8
CCOC(=O)c1c(CC(C)C)csc1NC(=O)CCl	37.4	7.7	61.6	2.4	1.0	x	x	x	1.3	4.1
CC1(C2CC2)NC(=O)N(CC(=O)Nc2ccc(Cl)c([N+](=O)[O-])c2)C1=O (centres undefined)	-4.4	-0.2	2.4	x	-3.9	-1.9	12.9	-1.5	1.1	x
O=C1OCC2=C1C(c1ccccc1)CC(=O)N2c1cccc(F)c1 (centres undefined)	0.9	6.0	-9.2	30.9	x	7.5	3.3	-4.9	-1.1	-12.4
O=C(Nc1cccnc1)c1ccc(-c2ccccc2)cc1	-6.5	-1.9	-19.5	-3.2	-0.6	8.6	0.4	-4.6	-6.1	-15.2
c1ccn2c(c1)nc1c2nc2ccccn21	-13.3	0.7	24.9	-5.1	4.7	x	x	x	-2.8	-8.1

An excerpt, so the mix of outcomes need not match the whole.
